# Screening data (PubChem BioAssay)
# IMPase Li inh – cell-permeable IMPase inhibitors with lithium potentiation. CHO-M1 cells, IP1 TR-FRET (IP-One), carbachol + lithium. Potency, µM (doses to about 59.4 µM), for inactives: at the highest dose activity, negative = IMPase inhibition, usual class: inhibitors. 210,000 tested, 0.35% active. AID 1457;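 further: IP1 builds up when IMPase is blocked and the TR-FRET signal falls; plate controls were basal vehicle for no effect and high inhibitor control for full effect; nearly all actives have a fitted effect of over 50% in size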
#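 IP1 accumulation measured by competitive TR-FRET in lysed CHO-M1 cells after 30 min compound exposure at 37C, with a small lithium addition to potentiate weak responses. Hill-equation AC50 from ratio and donor-channel data.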
# Luc counter – Kinase-Glo luciferase inhibition (counter-screen); 200,000 tested, 0.28% active; Kinase-Glo luciferase, ATP luminescence, 8 min; Q27757; Potency, µM (highest dose often 38.3 µM), for inactives: top-dose activity change, negative = inhibition, actives largely listed as inhibitors; further: on the % scale 0 is the no-effect control and ±100 the full control effect; nearly all actives have a fitted effect of over 60% in size
#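 Inhibition of Kinase-Glo luciferase light generation was assessed at 10 uM ATP in pH 7.2 imidazole buffer, with luminescence measured after eight minutes at ambient temperature.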
# RECQ1 helicase – inhibitors of human RECQ1 DNA helicase. P46063. RECQ1 DNA unwinding, red fluorescence kinetic read. Potency, µM (highest dose often 57.3 µM), for the others: at the highest dose activity, negative = inhibition, most hits filed as inhibitors. 240,000 tested, 0.54% active;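 further: plate controls were vehicle for no effect and no enzyme for full effect; nearly all actives have a fitted effect of over 30% in size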
#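 RECQ1T1 50 nM; forked duplex (20 bp + 30-nt ss tails) 200 nM, ATP 2 mM final; pH 8.0, 2 mM MgCl2, 2.5 ug/ml poly(dI-dC); 15 min compound preincubation; discontinuous kinetic read over 2 h at RT.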
# Epigenetic reg – derepresses silenced GFP reporter in murine cells; murine LDR cells, GFP reporter derepression, 30 h; Potency, µM (titrated, usually from 53.9 µM), for the others: at the highest dose GFP activation, actives largely listed as activators; 280,000 tested, 0.2% active; AID 1865; further: % of control where 0% means no effect; nearly all actives have a fitted effect of over 60% in size
#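 Derepression of a silenced CMV-GFP reporter in murine LDR cells is scored by enumerating GFP-positive cells with a laser-scanning microplate cytometer after 30 hours of treatment at 37 C.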
# SMN2 splice enh – SMN2 splice variant enhancement | HEK293 SMN2-luciferase splicing reporter, luminescence, 30-36 h | Potency, µM (highest dose often 46.1 µM), inactives show at the highest dose activity change, positive = activation, actives largely listed as activators | 210,000 tested, 2.8% active; further: % of control where 0% means no effect; nearly all actives have a fitted effect of over 55% in size
#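 HEK293 cells carry an SMN2 minigene-luciferase reporter in which exon 7 inclusion puts luciferase in frame. Cells were seeded at 2000 cells/well, attached for 10-12 hours, then exposed to compounds for 30-36 hours at 37C before ONE-Glo luminescence.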
# RGS12 GoLoco inh – inhibitors of human Gai1-RGS12 GoLoco interaction (red fluorophore) | P63096 | AID 880 | 230,000 tested, 0.44% active | Potency, µM (top dose mostly 61.6 µM), inactives show top-dose activity, negative = inhibition, usual class: inhibitors | Gai1:RGS12 GoLoco peptide FP, rhodamine, 10 min; active means well fitted inhibition curve with a large enough effect, not every such curve was filed as active; inactive means no such curve, though single readings can be large or run the other way; further: on the % scale 0 is the no-effect control and ±100 the full control effect; nearly all actives have a fitted effect of over 30% in size; many of its hits are not listed in these tables
# Target sequence (P63096 whole entry, looked up): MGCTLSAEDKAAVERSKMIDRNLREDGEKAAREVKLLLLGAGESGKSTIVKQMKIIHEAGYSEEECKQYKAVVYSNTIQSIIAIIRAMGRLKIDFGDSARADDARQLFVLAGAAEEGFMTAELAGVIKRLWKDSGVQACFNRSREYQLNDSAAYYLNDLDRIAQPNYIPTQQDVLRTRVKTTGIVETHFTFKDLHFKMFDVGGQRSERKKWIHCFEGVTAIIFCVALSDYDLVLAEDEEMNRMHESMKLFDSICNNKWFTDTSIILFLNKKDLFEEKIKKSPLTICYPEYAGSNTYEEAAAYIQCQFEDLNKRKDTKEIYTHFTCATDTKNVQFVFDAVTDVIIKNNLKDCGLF
# JMJD2E inh – inhibitors of human JMJD2E histone demethylase | JMJD2E catalytic domain, FDH-coupled NADH fluorescence (FDH is formaldehyde dehydrogenase) | Potency, µM (series often up to 57.1 µM), for inactives: at the top dose activity change, negative = inhibition, most hits filed as inhibitors | 230,000 tested, 1.6% active | AID 2147; active means well fitted inhibition curve with a large enough effect, not every such curve was filed as active; inconclusive means small, poorly fitted or top-dose-only effect, or another doubt; inactive means no such curve, though single readings can be large or run the other way;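 further: 0% = wells with enzyme and -100% = buffer wells without enzyme; nearly all actives have a fitted effect of over 50% in size; many of its hits are not listed in these tables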
# Target sequence (B2RXH2 1-337 limits assumed): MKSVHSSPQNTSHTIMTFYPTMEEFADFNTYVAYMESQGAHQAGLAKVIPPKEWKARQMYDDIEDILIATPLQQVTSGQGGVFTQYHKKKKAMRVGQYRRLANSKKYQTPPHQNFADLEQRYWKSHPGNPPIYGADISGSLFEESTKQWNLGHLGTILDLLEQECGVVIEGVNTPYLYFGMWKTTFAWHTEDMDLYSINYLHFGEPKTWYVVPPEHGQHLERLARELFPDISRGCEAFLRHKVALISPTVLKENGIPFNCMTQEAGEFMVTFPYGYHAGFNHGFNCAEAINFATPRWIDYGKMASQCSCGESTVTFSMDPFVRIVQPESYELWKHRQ
# * hit, by the source's call; i = inactive; ? = inconclusive; nt = no result given; & = joins results of further samples; [ ] = dose if it differs, or a comment. Unless noted, the call rests on the fitted dose curve; in most records, active means well fitted curve in the direction sought with a large enough effect; inconclusive means small, poorly fitted or top-dose-only effect, or another doubt; inactive means no such curve, though single readings can be large; an effect the other way counts as inactive or inconclusive. Potency means the concentration at half of the fitted maximal effect.
SMILES,IMPase Li inh,Luc counter,RECQ1 helicase,Epigenetic reg,SMN2 splice enh,RGS12 GoLoco inh,JMJD2E inh
CCCOc1ccc(C2=NNC(c3cccs3)=Nc3ccc(OC)cc32)cc1,27%,-3%,-15%,-1.2%,-1%,2%,4%
O=C(Nc1ccn(Cc2c(F)c(F)cc(F)c2F)n1)c1ccc(COc2cc(Cl)ccc2Cl)o1,43%[activator][38.3 µM],-5%,-16%,-1.0%,1%,3%,-2%
CCCCCOC(=O)Nc1ccc(S(=O)(=O)Nc2cccc([N+](=O)[O-])c2)cc1,8%,-1%,9%,1.5%,-25%,-11%,1%
Cc1ccc2[nH]c(=O)c(-c3noc(CC(C)C)n3)cc2c1,nt,nt,i,-2.4%,nt,6%,?
O=C(COC(=O)c1ccc([N+](=O)[O-])s1)Nc1cccc(S(=O)(=O)NC2=NCCCCC2)c1,nt,nt,-5%,0.0%,nt,2%,-27%
O=c1[nH]c2cc3c(cc2cc1C(c1nnnn1C1CCCC1)N1CCSCC1)OCCO3 (stereo not given),-4%[38.3 µM],-2%,-8%,-2.4%,-6%,7%,?
Cc1ccc(F)c(C2C3C=CCC(c4ccccc4)C3C(=O)N2Cc2ccccc2)c1 (stereo not given),nt,nt,-18%,nt,nt,nt,nt
CCOC(=O)c1ccc(N2CC(O)=C(c3nc4ccccc4c(=O)[nH]3)C2=N)cc1,15%[38.3 µM],2%,-2%,1.2%,nt,70%[activator],?
CCCc1nc(SCC(=O)N2c3ccccc3CC2C)c2c(C)c(C)sc2n1 (stereo not given),-3%[38.3 µM],-2%,-3%,0.0%,?,-3%,2%
COC(=O)COc1cccc(NC(=O)c2ccc(Cl)cc2)c1,9%,1%,i,-1.3%,0%,-2%,10%
O=C1c2oc3ccccc3c(=O)c2C(c2cccnc2)N1Cc1ccco1 (stereo not given),31%[38.3 µM],3%,-13%,0.0%,2%,-11%,5%
COc1cccc(NC(=O)CSc2nnc(Cc3cccs3)n2-c2ccc(C)cc2)c1,50%[activator][38.3 µM],19%,-5%,-1.3%,nt,32%[activator],-7%
COc1ccc(Cl)cc1NC(=S)N(Cc1ccc(C(=O)O)cc1)Cc1ccc(OC)c(OC)c1,14%,2%,4%,-3.3%,-39%[inhibitor],-8%,3%
CCOC(=O)c1c(NC(=O)C(C)N2CCN(C(=O)c3ccco3)CC2)sc2c1CCCC2 (stereo not given),47%[activator][38.3 µM],2%,i,-4.1%,-22%,29%,?
COc1ccccc1C(=O)Nc1ccc2c(c1)OCCO2,-3%[38.3 µM],-24%,i,8.3%,13µM*,-1%,2%
Cn1c(=O)c2c(SCc3cccnc3)nc(CC(C)(C)C)nc2n(C)c1=O,39%[activator][38.3 µM],-3%,-6%,0.8%,-7%,8%,1%
CC1C(O)=C(c2nc3ccccc3[nH]2)C(=N)N1c1ccccc1 (stereo not given),-1%[38.3 µM],0%,i,-1.0%,26%,6%,1%
COc1ccc2oc(=Nc3ccc(C(=O)O)cc3)c(C(=O)NCc3ccco3)cc2c1,9%,-2%,6%,1.1%,-18%,8%,-2%
COc1ccc(Nc2nc3ccccc3nc2NS(=O)(=O)c2ccc(NC(C)=O)cc2)cc1,nt,nt,-5%,0.1%,nt,5%,-10%
CSc1ncc(Cl)c(C(=O)Nc2sc3c(c2C(=O)NCc2ccco2)CCCC3)n1,-4%[38.3 µM],1%,5%,?,1%,2%,2%
CCc1nc(SCC(=O)NNC(=O)C(C)C)c2ccccc2n1,-19%[38.3 µM],-1%,2%,0.6%,1%,-7%,2%
OC1CCN(C(c2ccc3ncccc3c2)c2nnnn2C2CCCCC2)CC1 (stereo not given),2%[38.3 µM],15%,-9%,0.8%,-11%,15%,2%
CCCCc1nc(N2CCOCC2)c(C#N)c2c1COC(C)(C)C2,7%[38.3 µM],1%,0%,0.9%,-15%,2%,?
COc1cc(CNCc2ccccn2)ccc1OCc1cccc(Cl)c1,10%[38.3 µM],-1%,-9%,0.0%,-3%,3%,10%
COc1ccc(C(=O)/C=C2/Sc3cc4c(cc3N2C)OCO4)cc1,nt,nt,2%,3.6%,nt,nt,-5%
CCCCN1C2=C(C(=O)CCC2)C(c2ccc(Cl)c(Cl)c2)C2=C1c1ccccc1C2=O (stereo not given),5%[38.3 µM],-3%,-7%,-0.4%,-8%,15%,1%
c1cc(C(c2nnnn2C2CCCC2)N2CCOCC2)ccn1 (stereo not given),32%[activator][38.3 µM],0%,?,2.7%,2%,-9%,?
NC(=O)C1CCN(Cc2nnnn2Cc2ccco2)CC1,0%[38.3 µM],-2%,i,-0.7%,-8%,0%,0%
CCC(=O)N(CCC(c1ccc(C)cc1)c1ccco1)Cc1ccco1 (stereo not given),nt,nt,-20%,2.0%,nt,3%,1%
CC1CCCC(NC(=O)c2cn(C)c3ccc(S(=O)(=O)N4CCCC4)cc3c2=O)C1C (stereo not given),16%[38.3 µM],0%,2%,0.0%,16%,5%,5%

# 6 consecutive entries already listed, quoted:
SMILES,IMPase Li inh,Luc counter,RECQ1 helicase,Epigenetic reg,SMN2 splice enh,RGS12 GoLoco inh,JMJD2E inh
COc1ccc(C(=O)/C=C2/Sc3cc4c(cc3N2C)OCO4)cc1,nt,nt,2%,3.6%,nt,nt,-5%
CCCCN1C2=C(C(=O)CCC2)C(c2ccc(Cl)c(Cl)c2)C2=C1c1ccccc1C2=O (stereo not given),5%[38.3 µM],-3%,-7%,-0.4%,-8%,15%,1%
c1cc(C(c2nnnn2C2CCCC2)N2CCOCC2)ccn1 (stereo not given),32%[activator][38.3 µM],0%,?,2.7%,2%,-9%,?
NC(=O)C1CCN(Cc2nnnn2Cc2ccco2)CC1,0%[38.3 µM],-2%,i,-0.7%,-8%,0%,0%
CCC(=O)N(CCC(c1ccc(C)cc1)c1ccco1)Cc1ccco1 (stereo not given),nt,nt,-20%,2.0%,nt,3%,1%
CC1CCCC(NC(=O)c2cn(C)c3ccc(S(=O)(=O)N4CCCC4)cc3c2=O)C1C (stereo not given),16%[38.3 µM],0%,2%,0.0%,16%,5%,5%

# The list goes on.
SMILES,IMPase Li inh,Luc counter,RECQ1 helicase,Epigenetic reg,SMN2 splice enh,RGS12 GoLoco inh,JMJD2E inh
NC(=O)Cc1ccc(Nc2nnc(-c3ccccc3)c3ccccc23)cc1,5%,-1%,-8%,13%,0%,0%,?
Cc1ccc(-c2csc3nc(SCC(N)=O)n(Cc4ccccc4)c(=O)c23)cc1,4%,4%,-8%,-1.1%,-1%,7%,-6%
COc1ccc(CNC(=O)CSCc2cccc(Cl)c2)cc1,3%,4%,-9%,0.0%,-11%,9%,-7%
CCCOc1ccc(C(=O)C(CN2CCOCC2)c2ccccc2)cc1 (stereo not given),13%,2%,-12%,-0.3%,-103%[inhibitor],4%,14%
COc1ccc(C(C(=O)NC2CCCC2)N(Cc2ccccc2)C(=O)c2nsc(Cl)c2Cl)cc1 (stereo not given),38%[activator][38.3 µM],2%,-4%,-0.6%,-19%,5%,-5%
CC1CCc2cc(F)ccc2N1C(=O)CSc1nnc2c(n1)[nH]c1ccc(F)cc12 (stereo not given),14%[38.3 µM],4%,2%,1.2%,-24%,0%,3%
O=C(c1cccc(F)c1)N1CCN(c2cc(N3CCCCC3)c(F)cc2[N+](=O)[O-])CC1,7%,4%,?,-0.9%,-24%,1%,-4%
Cc1cccc(Cn2nc(C(C)(C)C)cc2C(=O)Nc2ccc(F)cc2)c1,nt,nt,-2%,1.6%,nt,7%,6%
COCC(C)NS(=O)(=O)c1ccc(NC(=O)C(Cc2ccccc2)NC(N)=O)cc1 (stereo not given),-9%[38.3 µM],12%,-5%,0.0%,15%,1%,3%
O=C(CSc1ccc2ccccc2c1Br)Nc1cccc(S(=O)(=O)NC2=NCCCCC2)c1,?,-2%,-10%,-0.9%,-5%[1.84 µM],23%,-10%
CC(C)Cc1nc2oc3c(NCC4CCCO4)ncnc3c2c2c1CCC2 (stereo not given),4%[38.3 µM],11%,i,0.4%,-22%,6%,?
CCOC(=O)/C(=C\c1ccccc1)C(=O)c1cc(C(C)=O)c(Nc2ccccc2)s1,41%[activator][38.3 µM],-2%,-8%,-3.6%,-6%,26%,-8%
O=C(CN1CCN(Cc2ccc(Cl)cc2)CC1)N/N=C/C=C/c1ccccc1[N+](=O)[O-],1%,1%,i,2.3%,-51%[inhibitor],-6%,1%
COc1ccc(CN(CCC(c2ccco2)C(C)C)C(C)=O)cc1OC (stereo not given),nt,nt,-10%,-1.3%,nt,-5%,3%
Cc1ccc(NC(=O)c2cccc(F)c2)cc1S(=O)(=O)N1CCCCCC1,17%,-2%,i,3.3%,-30%,13%,56%[activator]
Cc1ccccc1NC(=O)c1cn2c(nc3ccccc32)c(C#N)c1C,nt,nt,i,?,nt,1%,?
COCCOC(=O)C(C#N)c1nc2ccccc2nc1N1CCN(Cc2ccccc2)CC1 (stereo not given),37%[activator][38.3 µM],-5%,i,4.1%,8%,14%,?
COc1ccc2sc3c(=O)[nH]c4ccccc4c3c2c1,?,0%,-7%,-2.3%,-30%[inhibitor],7%,-1%
CO[C@H]1/C=C/O[C@@]2(C)Oc3c(C)c(O)c4c(O)c(c5c(c4c3C2=O)NC2(CCN(CC(C)C)CC2)N=5)=NC(=O)/C(C)=C\C=C\[C@H](C)[C@H](O)[C@@H](C)[C@@H](O)[C@@H](C)[C@H](OC(C)=O)[C@@H]1C,15%,nt,-5%,nt,-1%,-2%,nt
COc1ccc(C(c2nnnn2C2CCCC2)N2CCc3ccccc3C2)cc1OC (stereo not given),12%[38.3 µM],16%,-21%,-0.4%,-9%,7%,-16%
CC(C)Cc1nc(Nc2ccc(S(=O)(=O)N3CCCC3)cc2)c2nnn(Cc3ccccc3)c2n1,-3%,-5%,-10%,0.0%,-18%,2%,?
CC(C)NC(=S)NC(=O)c1ccc(-c2ccccc2)cc1,nt,nt,-15%,-0.9%,nt,nt,-3%
CC1CCc2cc(F)ccc2N1C(=O)c1cc2nc(-c3ccco3)cc(C(F)(F)F)n2n1 (stereo not given),3%,0%,-3%,0.0%,-23%,10%,-2%
COc1ccc(C2=NOC(C(=O)NCc3ccc(F)cc3)C2)cc1OC (stereo not given),21%[38.3 µM],-4%,i,-6.3%,-13%,12%,-5%
COC(=O)C1=C(C)NC(C)=C(C(=O)OC(C)C)C1c1cccc2nonc12 (stereo not given),15%,3%,0%&-5%,0.0%&-0.4%,nt,9%&3%,-10%&0%
Cc1sc(NC(=O)c2ccco2)c(C(c2ccc(F)cc2)N2CCN(C)CC2)c1C (stereo not given),2%,-3%,i,-0.1%,-1%,11%,-8%

# Some of the compounds tested, so the mix of outcomes need not match the whole.
